# Bioassay records deposited in PubChem BioAssay by ICCB-Longwood Screening Facility, Harvard Medical School.
# S aureus helic = S. aureus DNA helicase inhibition; purified S. aureus helicase, fluorescence unwinding assay; about half of the hits fall short of the stated cut; inhibition, %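 (tested at about 80 µM)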; 0.05% of 120,000 active; AID 485395;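 active = both duplicates at 50% or more, or one of them with a favoured structure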;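 note: 0% = mean of negative control wells and 100% = mean of positive control wells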
# MgrA DNA FP = modulators of Staphylococcus aureus MgrA DNA binding; fluorescence polarization; AID 602314; 0.13% of 84,000 active; inhibition, %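 (about 10 µg/mL by stock and volumes)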;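 active = above 50% in either of two replicates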;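 note: 0% = protein plus DNA without compound and 100% = DNA alone without protein; higher means less MgrA bound to DNA so lower polarization; one replicate is shown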
# * = called active by the depositor; x = not tested or not shown; & = joins results of further samples.
SMILES,S aureus helic,MgrA DNA FP
CCC(C)NC(=O)/C=C/c1cc2c(cc1Br)OCO2 (configuration not stated),x,1.5
Cc1ccc(CN(C)C(=O)CN(C)S(=O)(=O)c2ccc(Cl)cc2)o1,-12,x
COc1cc(C=Nc2nonc2NC(C)=O)ccc1OC(C)C,8,-1.4
COCc1nnc(NS(=O)(=O)c2ccc(OC)cc2)s1,8,2.2
CCC(C(=O)O)C(C)CC(=O)Nc1ccccc1Cl (configuration not stated),1,0.1
O=C(Nc1c(C(=O)N(Cc2ccc(F)cc2)Cc2cccnc2)oc2ccccc12)C1CC1,-14,x
CCC(C(=O)Nc1cccc(OC)c1)n1c(SCc2ccc(C)cc2)nc2cccnc21 (configuration not stated),9,4.7
CCN1C(=O)c2cccc3c(S(=O)(=O)NC(Cc4ccccc4)C(=O)O)ccc1c23 (configuration not stated),-27,x
CCN(C(=O)c1cncn1-c1ccc(F)cc1)c1nc2c(C)cccc2s1,-1,x
CCCCc1ccc(NS(=O)(=O)c2cccs2)cc1,-10,x
Cc1csc(C(=O)Nc2cccc(C(F)(F)F)c2)c1,x,-0.9
CCSc1nnc2sc3ccccc3n12,-24,x
CN1CCN(Cn2nc(-c3cccc(S(=O)(=O)N4CCOCC4)c3)n(Cc3ccc(F)cc3)c2=S)CC1,-12,x
CC12CCC(CC1=NNc1nc3ccccc3o1)C2(C)C (configuration not stated),-6,x
COC(=O)C1=CN(Cc2ccc(OC)cc2)C=C(C(=O)OC)C1c1cccc(O)c1,-3,x
CC(=O)N1C(C(=O)O)CSC1c1cccs1 (configuration not stated),x,-1.5
Cc1ccccc1OCC(=O)Nc1ccc2nn(-c3ccccc3)nc2c1,9,1.1
Oc1ccc(-c2[nH]ncc2-c2nc3ccccc3s2)c(O)c1,-19,x
COC(=O)c1scc(S(=O)(=O)C(C)(C)C)c1N,x,-0.4
CCOc1ccc(Br)cc1S(=O)(=O)Nc1ccc(F)cc1,-13,-5.0
O=C1NC(=O)N(c2ccccc2)C(=O)C1=Cc1c2ccccc2cc2ccccc12,29,20
NNC(=O)CNS(=O)(=O)c1cccc2nsnc12,x,-0.6
CC1CCCCC1NC(=O)CC#N (configuration not stated),-19,1.7
COC(=O)c1c(N)sc2c1CCC(C(C)(C)C)C2 (configuration not stated),0,-2.3
CCOC(=O)c1oc2ccccc2c1NC(=O)CCN1CCCCC1,13,3.0
SMILES,S aureus helic,MgrA DNA FP
COc1ccc(CNC(=O)C(C)N2CCC(c3nc4ccccc4o3)CC2)cc1 (configuration not stated),5,x
COc1ccc(OCC(O)CNC(=O)c2cccnc2Oc2ccc(Cl)cc2)cc1 (configuration not stated),x,4.6
Cc1cccc(C)c1NC(=O)NN1C(C)CCCC1C (configuration not stated),22,3.6
CN(C(=O)CN(C)S(=O)(=O)c1cccc2nsnc12)c1ccc(Br)cc1,9,x
Cc1ccc(Sc2ncccc2C(=O)O)c(C)c1,-9,x
c1nc(NCCCN2CCOCC2)c2c3c(sc2n1)CCCCC3,19,-0.8
COC(OC)c1ccnc(SCC(=O)Nc2ccc(C(C)C)cc2)n1,x,-1.5
C(=C\c1ccccc1)/CN1CCN(CC2CCCCC2)CC1,2,-2.2
COCC(C)n1c(COc2ccccc2F)nn(CN2C(C)CCCC2C)c1=S (configuration not stated),-11,x
O=C(O)c1nc2ccc(S(=O)(=O)C(F)(F)F)cc2n1O,-7,x
O=C(OCCN1CCCC1=O)c1cccnc1Cl,-34,-1.2
COc1cc2c(cc1OC)C(c1cccc(C)c1)N(C(=O)c1sc3ccccc3c1Cl)CC2 (configuration not stated),x,-1.2
O=C(Nc1ccc(N2CCOCC2)cc1)c1ccc2c(c1)S(=O)(=O)c1ccccc1C2=O,18,x
CN(C)C(=O)COC(=O)c1cccc(Oc2ccccc2)c1,5,-1.6
O=C(O)CSc1cc(Cl)ccc1Cl,6,0.9
Cn1c(C(=O)Nc2ccccc2)cc2sccc21,1,-1.8
NS(=O)(=O)c1ccc(NC(=O)CSc2ccccc2)cc1,7,x
Nc1nc2c(s1)CCc1c-2cnn1-c1ccccc1,16,35
CCCN(CCO)CC1CC=CCC1 (configuration not stated),3,-4.5
CCCc1cc(=O)c2c(O)cccc2o1,x,-2.5
O=c1oc2ccccc2cc1[N+](=O)[O-],x,13
Cc1ccc2cc(NC(=O)c3ccco3)ccc2n1,x,-1.3
CCOC(=O)CSc1nc(C2CC2)cc(-c2ccccc2)c1C#N,9,x
Cn1c(=O)c2c(nc3sccn32)n(C)c1=O,-1,x
S=c1[nH]nc(Cc2ccccc2)n1Cc1ccco1,-6,21
SMILES,S aureus helic,MgrA DNA FP
Cc1[nH]c2ccccc2c1C(c1c(C)[nH]c2ccccc12)C(C)C,-2,4.3
O=C(Nc1ncc(-c2ccc(Br)cc2)s1)c1sc2ccccc2c1Cl,x,-0.7
CC(C)(C)c1cc(CN2CCOCC2)c(O)c(CN2CCOCC2)c1,4,x
O=C(CSC(F)(F)F)Nc1ccccn1,-26,1.2
CC1CCCCC1NC(=O)c1cccn2c(=O)c3c4c(sc3nc12)CCCC4 (configuration not stated),15,2.4
O=C(Cc1ccc(S(=O)(=O)N2CCCC2)s1)N1CCOCC1,5,x
c1cncc(Oc2nc(-c3cccnc3)nc3ccccc23)c1,-7,x
Cc1ccc2[nH]c(=O)c3cc(C(=O)NC(C)CCc4ccco4)sc3c2c1 (configuration not stated),2,x
Cc1nc(-c2ccc(C(=O)N3CCCCC3)cc2)cs1,3,2.8
O=C(CC(=O)C(F)(F)F)c1ccc2c(c1)OCO2,x,-2.6
CN(C(=O)CSc1nc(O)cc(=O)n1-c1ccccc1F)c1ccccc1,3,-4.0
CCCC(=O)Nc1nonc1-c1ccc(OC)cc1,-23,x
CCOC(=O)C1=C(C)NC(=O)CC1c1ccccc1Cl (configuration not stated),x,2.2
Cc1ccc(S(=O)(=O)N2N=C(C(C)C)CC2(O)C(F)(F)F)cc1 (configuration not stated),7,-2.3
CN(C(=O)c1ccc(C#N)cc1)C1CCCCC1,5,x
CCOC(=O)CSc1sc(C(=O)OCC)c(N)c1C#N,4,-2.2
COc1ccc(-c2c(C#N)c(SCC(=O)OC(C)C)nc(C)c2C(=O)Nc2ccccc2)cc1,x,15
CCn1c(=NC(=O)c2cccs2)sc2cc(OC)c(OC)cc21,17,x
COc1ccc(/C=C/C(=O)C2CC2)cc1COc1cccc(C)c1C,6,-0.6
O=C(c1ccc(CS(=O)(=O)c2ccccc2)o1)N1CCOCC1,11,x
CN(C)CCN(C(=O)C1=COCCO1)c1nc2ccc(F)cc2s1,-24,x
COC(=O)c1[nH]c(=O)c2ccccc2c1O,16&16,x
NNC(=O)CNC(=O)c1cccs1,-3,-2.0
O=C(COC(=O)c1c(F)cccc1F)c1cccs1,4,x
Cc1ccc(/C=N/N2C(=O)C3C(C2=O)C2C=CC3C23CC3)o1 (configuration not stated),7,-0.1

# Filtered by structure, the entries above containing a CF3 group.
SMILES,S aureus helic,MgrA DNA FP
Cc1csc(C(=O)Nc2cccc(C(F)(F)F)c2)c1,x,-0.9
O=C(O)c1nc2ccc(S(=O)(=O)C(F)(F)F)cc2n1O,-7,x
O=C(CSC(F)(F)F)Nc1ccccn1,-26,1.2
O=C(CC(=O)C(F)(F)F)c1ccc2c(c1)OCO2,x,-2.6
Cc1ccc(S(=O)(=O)N2N=C(C(C)C)CC2(O)C(F)(F)F)cc1 (configuration not stated),7,-2.3

# New compounds follow.
SMILES,S aureus helic,MgrA DNA FP
COCCn1c(C)cc(/C=C2/C(=O)N(c3ccccc3)c3ccccc32)c1C,13,0.7
O=C(O)c1ccc2c(c1)C1C=CCC1C(c1cccc3ccccc13)N2 (configuration not stated),x,44
CCOc1ccc(C(C(=O)NC2CCCC2)N(Cc2ccco2)C(=O)Cn2nnc3ccccc32)cc1OC (configuration not stated),-7,4.9
NC1=NN=C(c2ccccc2)CS1,1,3.5
COc1cc(NS(=O)(=O)N2CCCC2)cc(OC)c1OC,10,3.7
CCOc1ccc(N(C(C)C(=O)NCc2ccc(C)cc2)S(C)(=O)=O)cc1 (configuration not stated),9,0.7
Cc1cccc(NC(C(=O)O)c2ccccc2)c1 (configuration not stated),x,0.1
O=C(NCc1cccnc1)c1c[nH]c2cc3c(cc2c1=O)OCCO3,8,-0.5
COC(=O)c1ccc(COC(=O)c2ccc(C)cc2C)cc1,11,0.2
CCOC(=O)c1sc2ncnc(OCC)c2c1C,-10,x
Cc1sc(-c2ccc(-c3csnn3)cc2)nc1-c1ccccc1,x,-4.5
CCn1c(CCNC(=O)Cc2ccccc2)nc2ccccc21,-17,x
Cc1ccc(N2CC(C(=O)Nc3c(C)cccc3C)CC2=O)cc1 (configuration not stated),16,-2.2
CCCCS(=O)c1sc2nc(-c3cccs3)cc(-c3ccccc3)c2c1N (configuration not stated),8,2.0
CCCCNS(=O)(=O)c1ccc2c(c1)CCN2C(=O)CC,18,x
CC(C)N(C(=O)CSc1nnc(Cc2csc(Nc3ccccc3)n2)o1)C(C)C,2,-0.8
O=C(Nc1ccc2nc3n(c(=O)c2c1)CCCC3)c1ccccn1,4,-0.3
CCOc1ccc(-n2c(SCC(=O)OC3CCS(=O)(=O)C3)nc3ccccc32)cc1 (configuration not stated),-11,x
O=C(CN1C(=O)c2cccc3cccc1c23)N1CCc2ccccc21,21,x
Nc1cc(SC(F)(F)C(F)(F)C(F)(F)F)cc2c1OCC(=O)N2,-7,x
Cc1c(-c2ccccc2)sc2ncnc(Sc3nnc(C4CC4)o3)c12,1,x
CSC1=C(C#N)C(=O)NC(c2ccccc2O)S1 (configuration not stated),x,11
O=C(c1ccccc1)N(Cc1ccccc1)c1ccccn1,7,1.4
CCc1ccc2[nH]c(=O)c(CN(CCCO)C(=O)Nc3ccccc3)cc2c1,1,0.3
O=S(N1CCCCC1)C12CC3CC(CC(C3)C1)C2 (configuration not stated),1,-0.9

# Individual results from the entries so far.
# Under S aureus helic, Cc1ccccc1OCC(=O)Nc1ccc2nn(-c3ccccc3)nc2c1 has the entry 9
# Under MgrA DNA FP, O=C(O)CSc1cc(Cl)ccc1Cl has the entry 0.9
# Under S aureus helic, O=C(O)c1nc2ccc(S(=O)(=O)C(F)(F)F)cc2n1O has the entry -7
# Under S aureus helic, COc1ccc(CNC(=O)C(C)N2CCC(c3nc4ccccc4o3)CC2)cc1 (configuration not stated) has the entry 5
# Under S aureus helic, Cc1ccc(CN(C)C(=O)CN(C)S(=O)(=O)c2ccc(Cl)cc2)o1 has the entry -12

# Other compounds
SMILES,S aureus helic,MgrA DNA FP
O=c1cc2nc(-c3ccco3)nc(SCc3ccccc3)n2[nH]1,5,x
CNC(=O)c1ccc(/C=C2/Sc3ccccc3NC2=O)cc1,6,-0.3
COCC(=O)Nc1ccc(CC#N)cc1,-5,-2.1
c1ccc(N2CCN(c3ccc(-c4nc5ccccc5[nH]4)cn3)CC2)cc1,-8,x
Clc1ccc2c(Nc3ccc4c(c3)OCO4)ccnc2c1,x,-1.1
CN(C1CCCCC1)S(=O)(=O)c1ccc(C(=O)Nc2nccs2)cc1,0,x
c1csc(CSc2nc3ccccc3[nH]2)c1,14,0.3
O=C(Nc1ccc2c3c(cccc13)CC2)C1=COCCO1,9,x
O=C(N/N=C\c1ccccc1C(F)(F)F)c1ccccn1,2,x
O=C(CC1SC(=NC2CC3C=CC2C3)NC1=O)Nc1ccccc1Cl (configuration not stated),x,5.0
Cc1cccc(-c2nc(CS(=O)CC(=O)NCc3cccs3)c(C)o2)c1 (configuration not stated),21,-0.9
CCOC(=O)c1c(C)[nH]c(C)c1S(=O)(=O)NC(C)CC (configuration not stated),15,x
CC(=O)/C(N=Nc1c(C)nn(C)c1C)=C(\C)O,x,-0.7
COc1ccccc1NC(CC(=O)c1ccccc1)C(=O)O (configuration not stated),-11,0.7
Cc1cc(C)c(NC(=O)/C=N/O)c(Cl)c1,-8,x
COC(=O)CNc1ccc2c(c1)OCO2,-4,-1.1
COC(=O)Nc1ccc2c(c1)N(C(=O)CCN1CCOCC1)c1ccccc1S2,-2,-1.1
NC1=NC(=O)CC(C(=O)Nc2cc(Cl)ccc2Cl)S1 (configuration not stated),2,-1.2
NC(=O)CN1C(=O)CC(c2ccco2)Sc2ccccc21 (configuration not stated),3,x
Cc1ccc(-c2cn3nc(N4CCC(C(=O)NCCN(C)C)CC4)sc3n2)cc1,19,x
Cc1ccnc(SCC(=O)O)n1,-7,x
CCCCc1ccc(NC(=O)Nc2ccc(N3CCN(C)CC3)cc2)c(C)c1,-10,x
C=CC[N+]1(CC#Cc2ccccc2)CCCCC1,-11,1.4
C=CCn1nnnc1SCC(=O)c1ccc(OC)cc1,-4,x
COc1ccc(/C=C2\CCc3ccccc3C2=O)cc1Cn1cccn1,8,-1.6
SMILES,S aureus helic,MgrA DNA FP
N#Cc1ccsc1NC(=O)CCC(=O)O,x,0.7
Cc1ccc(C(=O)Nc2ccc(Cl)cn2)cc1,-8,-2.2
N#Cc1c(-c2ccco2)cc(-c2ccccc2)nc1SCCN1C(=O)c2ccccc2C1=O,7,2.5
C=Cn1c2ccccc2c2cc(I)ccc21,6,0.1
CCCCC(=O)Nc1cccc2nc(C)ccc12,3,2.4
CCOC(=O)Cn1c(=O)oc2ccc(C)cc21,11,-1.9
O=c1oc2ccccc2n1CCOc1ccccc1Cl,15,x
CCOC(=O)N1CCN(C(=O)c2ccc3c(=O)n(CCc4ccc(OC)c(OC)c4)c(=O)[nH]c3c2)CC1,-1,x
Cn1cc(CCC(=O)N2CCc3ccccc32)c2ccccc21,-3,-1.4

# At a glance, 5 of the compounds above:
SMILES,S aureus helic,MgrA DNA FP
N#Cc1ccsc1NC(=O)CCC(=O)O,x,0.7
Cc1ccc(C(=O)Nc2ccc(Cl)cn2)cc1,-8,-2.2
N#Cc1c(-c2ccco2)cc(-c2ccccc2)nc1SCCN1C(=O)c2ccccc2C1=O,7,2.5
C=Cn1c2ccccc2c2cc(I)ccc21,6,0.1
CCCCC(=O)Nc1cccc2nc(C)ccc12,3,2.4

# Only part of the results is shown (hit frequency here may not be typical).
